Tgondii IFNg: T. gondii growth inhibition with IFN-gamma, primary screen, cell-based; Toxoplasma gondii growth in IFN-gamma-treated host cells; hits give low values; reference of the scale not given here; activity change, negative = inhibition, %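 (about 20 µM by stock and volumes)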; 69,000 tested, 3.8% active; AID 1259416, 2018;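 active = below -70%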;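 also: host cells are HeLa cells infected with Toxoplasma gondii; parasite growth read as luciferase light; one replicate is shown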
The depositor's hits bear a star; i = inactive; ! = repeats disagree. The list is partial; rates above refer to the full screens.

SMILES	Tgondii IFNg
CCN1c2cc(Cl)ccc2C(=O)NC12CCN(C(=O)Nc1ccccc1OC)CC2	119
Cc1cc(-c2cnc(N3CCOCC3)nc2C2CCN(CC3CCC=CO3)CC2)on1 (stereo not drawn)	38
COCCn1cc2c(n1)C(CNC(=O)COC)OCC2 (stereo not drawn)	5
O=C(O)CN1CC[C@H]2CN(C(=O)c3ccsc3)CCO[C@@H]2C1	-1
CN(Cc1ccccc1C(=O)O)C1Cc2ccccc2C1	-7
COc1ccc(NCc2ccsc2)cc1	i
NC(=S)c1ccc(C(F)(F)F)cc1Cl	12
COCC(=O)Nc1ccc(-c2ccc(F)cc2OC)cc1	32
Cc1nc(-c2ccc(F)cc2)sc1CCNS(=O)(=O)c1ccccc1Cl	48
O=C(O)c1ccc(-c2ccc(F)cc2)o1	-58
COCCN1C(=O)N(Cc2ccccc2)C2(CCN(Cc3ccc4c(c3)Cc3ccccc3-4)CC2)C1=O	-47
CN(C)C1COC2(CCN(Cc3ccc4c(c3)OCO4)CC2)C1 (stereo not drawn)	-6
CC(=O)NC(Cc1ccccc1)C(=O)NC1CCN(C(=S)Nc2ccccc2)CC1 (stereo not drawn)	-8
O=C(c1cc(-c2ccncc2)c2cnccc2n1)N1CCC(COc2ccccn2)CC1	10
Cc1nc(CCNC(=O)CCNC(=O)c2ccc(F)cc2)nc2c1CCC2	6
COCc1cn(CC[C@H]2CC[C@@H](NC(=O)Nc3c(C)noc3C)[C@H](CO)O2)nn1	-31
Cc1cnc(N2CCCn3c(CN4CCCC4=O)nnc3C2)nc1	-5
CCn1ncnc1C(C)NC(=O)c1ccccc1-c1ncc[nH]1 (stereo not drawn)	2
COc1cccc(NC(=O)N2C[C@H](O)COC[C@@H]3O[C@H](CC(=O)N(C)C)CC[C@H]32)c1	13
CC(C)NC(=O)CNCc1cccnc1	-10
Cc1ccc(NC(=O)CCN2C(=O)CSC2=O)cc1	-4
CCCC(=O)N1CCC2(CC1)CC(Nc1ncccn1)CO2 (stereo not drawn)	4
Nc1cccc(F)c1-c1nc(-c2ccncc2)n[nH]1	9
O=C1NC2(CCN(C(=O)c3cnccn3)CC2)CC1c1ccccc1 (stereo not drawn)	6
CCn1c(CC2CCN(C(=O)C3COc4ccccc4O3)CC2)nn(C)c1=O (stereo not drawn)	-2
CCOc1ccc(C(=O)NCCc2csc(-c3ccc(C(F)(F)F)cc3)n2)cc1OCC	331
O=C(C1CCC1)N1CC2(C1)[C@H](c1ccccc1)[C@@H](CO)N2Cc1nccs1	-3
CC(=O)N1CCC2(CC1)OC(=O)C(C)=C2C(=O)N1CCc2ccccc2C1	75
CCCNC(=O)Nc1ccc2c(c1)OC[C@H](C)N(S(C)(=O)=O)C[C@@H](C)[C@H](OC)CN(C)C2=O	78
O=C(c1ccc(Cn2ccnc2)o1)N1CCCC(c2ccn[nH]2)C1 (stereo not drawn)	-39
COc1ccc(Oc2ccc(C(=O)NCCc3ccccn3)cc2)cc1	-54
O=C(Nc1ccccc1)c1ccccc1CCc1ccccc1	6
Cc1ccccc1S(=O)(=O)N1CC[C@@H]2[C@@H](CO)N(C)c3ccc(-c4cccc(F)c4)cc3[C@@H]21	-67
Cc1cc2cc(C(=O)NCCS(=O)(=O)NC3CCCCC3)ccc2o1	-23
O=C(Nc1ccccc1F)N[C@@H]1CC[C@H](CCNC(=O)C2CC2)O[C@@H]1CO	-27
Cc1ccc(C)c(S(=O)(=O)NCCc2csc(-c3cccc(F)c3)n2)c1	-10
CC(C)c1cc(C(=O)N2CCN3CCN(C)C(=O)C3C2)nc2ncnn12 (stereo not drawn)	2
Nc1nnc(SCc2c(Cl)cccc2Cl)s1	80
Cc1nc(CN2CC3(CCN(C(=O)c4cccn4C)C3)CC2=O)cs1 (stereo not drawn)	-23
O=C(C[C@@H]1C=C[C@H](NC(=O)C2CCOCC2)[C@@H](CO)O1)NCCc1cscn1	-34
COc1ccc(S(=O)(=O)Nc2ccc3c(c2)C(=O)N([C@H](C)CO)C[C@@H](C)[C@@H](CN(C)S(=O)(=O)c2ccc(Cl)cc2)OCCCC[C@H](C)O3)cc1	-117*
CN1CCC(c2nc3ccc(Nc4ccccc4)cn3n2)CC1	364
CCNC(=O)c1cccc(-c2ccc(OC)c(OC)c2OC)c1	13
Cc1nnc(SCCCn2c(N3CCC(C)CC3)nc3c2c(=O)[nH]c(=O)n3C)s1	-42
C[C@@H]1CCCCO[C@@H](CN(C)C(=O)Nc2cccc3ccccc23)[C@H](C)CN([C@H](C)CO)C(=O)c2cc(NC(=O)CCC(F)(F)F)ccc2O1	212
Cn1cnc2cc(C(=O)N3CCCC(Nc4ccc(F)c(F)c4)C3)cnc21 (stereo not drawn)	-3
Cc1cc(C)c(NC(=O)c2nc(Nc3ccccc3)c3ccccc3n2)c(C)c1	-78*
CC(C)c1cc(C(=O)NCCCc2nc3ccccc3n2C)n(C)n1	0
Cc1ccc(-c2nc(CCNC(=O)c3cccc(C(F)(F)F)c3)cs2)cc1	463
CC12CCC(c3c(C(F)(F)F)nc(N)nc31)C2(C)C (stereo not drawn)	27
COc1ccc(NC(=O)c2nnn(Cc3nc(-c4ccc(Cl)cc4)oc3C)c2C)cc1OC	-21
Cc1ccsc1C(=O)N1Cc2ccnn2CC(COCC2CC2)C1 (stereo not drawn)	-1
Cc1cc(=O)c(C(=O)NCc2cccnc2)c2n1-c1ccccc1SC(c1ccc(F)c(F)c1)C2 (stereo not drawn)	1
COC(=O)[C@H]1[C@H]2C[C@@H]3c4[nH]c5cc(OC)ccc5c4CCN3C[C@H]2C[C@@H](OC(=O)c2ccc(N)cc2)[C@@H]1OC	-5
CN(C)C1CCN(C(=O)c2cc(-c3ccn(CC4CC4)n3)n3ccccc23)CC1	-1
CCOc1ccc(NC(=O)Nc2ccc(-c3nc(-c4cc(C)ccc4C)co3)cc2)cc1	7
O=C(C1CCN(S(=O)(=O)c2ccc3[nH]c4c(c3c2)CCCCC4)CC1)N1CCCC1	-44
COCC1CN(C2CCOC2)Cc2ccnn2C1 (stereo not drawn)	1
Cc1cc(NC(=O)CN2CCN(S(=O)(=O)N3CCCC3)CC2)no1	-4
O=C(CCC1N=C2c3ccccc3N=C(SCc3ccccc3F)N2C1=O)NCc1ccco1 (stereo not drawn)	31
More entries
SMILES	Tgondii IFNg
CCN1C(=O)CCc2cc(C(=O)N3CCCCC3)ccc21	18
CC(=O)Nc1ccc(Cl)c(C(=O)Nc2cnc3n2CCCC3)c1	8
CS(=O)(=O)N1CCC2(CC1)CN(c1ncccn1)Cc1ccccc12	-7
COc1ccc(C)cc1S(=O)(=O)N1CCC2(CCCO2)CC1	-22
Cc1nn(CCO)cc1CN1CCC1c1ccc(F)cc1 (stereo not drawn)	2
CS(=O)(=O)N1[C@H](CO)[C@H](c2ccccc2)C12CN(C(=O)c1ccccc1F)C2	-23
N#Cc1ccc(N2CC3(CCN(C(=O)c4cnc[nH]4)C3)CC2=O)cc1 (stereo not drawn)	3
Cn1c(=O)oc2cc(S(=O)(=O)Nc3cccc(CCc4ccccn4)c3)ccc21	-58
CCCNC(=O)N1CCN(Cc2nc(-c3ccc(C)cc3)oc2C)CC1	0
CCN1CCC2(CC1)OC(=O)C(C)=C2C(=O)NCCC1=CCCCC1	64
Cc1noc(C)c1CN(C)C(=O)c1coc(COc2ccc(F)cc2Cl)n1	-54
Cc1occc1C(=O)N1CCC2(CCC2NS(=O)(=O)c2ccccc2)CC1 (stereo not drawn)	3
O=S(=O)(Oc1cccnc1)c1cc(Br)c(Br)s1	-14
O=C(NC1CCC(n2cnnc2)CC1)c1cnc(-c2ccccn2)nc1 (stereo not drawn)	1
Cn1ncc2c3ccccc3n(CC(=O)NCc3ccccn3)c2c1=O	217
Cc1cc(F)ccc1S(=O)(=O)N1CC(c2ccncc2)C1	5
O=C(NC1CCCC1)N1CCCCN2[C@H](C1)[C@H](c1ccc(-c3cccnc3)cc1)[C@@H]2CO	1
CCCCc1ncc(CN2CCN(c3ccccc3OC)CC2C)[nH]1 (stereo not drawn)	-2
CN(C)[C@H]1CCO[C@]2(CCN(C(=O)Cc3ccc(F)cc3)C2)C1	0
CCc1cnc(N2CCc3ncnc(N4CCN(C)CC4)c3CC2)nc1	-3
CN(C)[C@@H]1CCN(c2ncc(F)cn2)[C@H]1Cc1cnn(C)c1	-2
CN(C)[C@@H]1CCN(Cc2cccs2)[C@H]1Cc1cnn(C)c1	24
CCN1CCN(C)C(=O)C12CCN(S(=O)(=O)c1ccc(C(C)C)cc1)CC2	6
CCn1c(=O)c(C(=O)Nc2ccc(C)cc2)c(O)c2ccccc21	98
Cc1nc2c(c(N(C)C)n1)CCN(C(=O)c1cc(C(C)C)nn1C)C2	2
CCC(=O)N1CCc2cc(C(O)CN3CCCC(O)(c4ccccc4OC)C3)ccc21 (stereo not drawn)	9
COc1cccc(NC2COC3(CCN(S(=O)(=O)c4cccc(F)c4)CC3)C2)c1 (stereo not drawn)	-1
CC(C)c1nc(CCN(C)S(C)(=O)=O)n(-c2ccc3c(c2)OCCO3)n1	-2
Cc1ccc(-c2cc(-c3csc(COC(=O)C(C)(C)C)n3)on2)cc1C	52
COCCN(CC1CC1)C(=O)c1cc(NC(C)=O)ccc1Cl	-6
Cc1scc(NS(=O)(=O)c2ccc3c(c2)sc(=O)n3C)c1C	-40
CCOc1ccc(-c2nc(CSc3nc4c(c(=O)[nH]3)CN(C(C)C)CC4)c(C)o2)cc1OC	8
FC(F)(F)c1cccc(N2CC(c3ccncc3)C2)n1	-18
Cc1nc(C2CN(Cc3ccccc3)CCO2)no1 (stereo not drawn)	14
CN(C)C(=O)CN1CCCC2(CCN(S(=O)(=O)c3cn(C)cn3)C2)C1 (stereo not drawn)	-2
Cc1cc(-c2cnc(SCC(=O)c3ccc(F)cc3F)nc2-c2ccco2)on1	9
O=C(NCCc1csc(-c2ccccc2)n1)[C@H]1CSCN1S(=O)(=O)c1cccs1	-59
Cc1nc(NC(=O)NCc2cccc(C(F)(F)F)c2)nn1C	6
COCCCNC(=O)c1cc2cc(S(=O)(=O)N(C)C)ccc2n1Cc1ccncc1	56
CCn1cc(-c2c(-c3ccccc3)ncn2Cc2c(C)noc2C)cn1	0
COc1ccccc1CNC(=O)C1CCN(S(=O)(=O)c2ccc3[nH]c(=O)ccc3c2)CC1	18
Cc1nccn1CC1CCCN(Cc2cccc(-c3ccccn3)c2)C1 (stereo not drawn)	-8
O=C(C[C@@H]1CC[C@@H]2[C@H](COC[C@@H](O)CN2Cc2ccc3c(c2)OCO3)O1)N1CCCCC1	-19
C[C@@H]1CCCCO[C@@H](CN(C)C(=O)CCC(F)(F)F)[C@H](C)CN([C@@H](C)CO)C(=O)c2cc(NC(=O)C3CCCCC3)ccc2O1	4
FC(F)(F)c1cc(C(F)(F)F)n2ncc(-c3nc(-c4ccc(Cl)cc4)cs3)c2n1	17
CSc1sc(C(=O)NC(=S)Nc2ccccc2Cl)cc1S(=O)(=O)C(C)C	-14
CCOc1ccc(NC(=O)Nc2ccc(-c3nc(-c4ccc(C)cc4C)co3)cc2)cc1	16
CCC1=N[C@@]2(CC[C@@H]3CN(C(=O)NC4CCCC4)C[C@H]32)C(=O)N1CCOC	9
CN(C)C(=O)Cn1c2c(ccc1=O)CCN(Cc1nccs1)CC2	-12
c1ccc(-c2cnnc(N3CCN(C45CC6CC(CC(C6)C4)C5)CC3)n2)cc1	14
Cc1cccc(CN2CCC3(CC2)N=C(c2ccc(C)c(C)c2)C(=O)N3)c1	-17
Cc1ccsc1[C@@H]1CCN(Cc2cccc3nsnc23)C[C@H]1O	-6
COc1ccc2c(c1)NC1(CCN(S(=O)(=O)c3ccc(F)c(Cl)c3)CC1)c1cccn1-2	11
CCn1c(C(C)Oc2ccc(Cl)cc2)n[nH]c1=S (stereo not drawn)	-4
COc1ccc(-c2nc(N(Cc3ccco3)C3CCCCC3)c3ccccc3n2)cc1	72
Cc1nn(C)cc1NC(=O)CC1CCN(CCc2ccccc2)CC1	3
O=C(Cn1c(=O)ccc2cc(S(=O)(=O)N3CCCC3)ccc21)NCc1ccc(Cl)cc1	-53
COc1ccc(NC2(C(=O)N3CCCn4cncc4C3)CCCC2)cc1	4
CC1CCCCN1C1CN(Cc2cc(F)ccc2O)C1 (stereo not drawn)	1
CN(C)c1ccc(C(=O)NCCCCCCC(=O)NO)cc1	-88*!

Compounds listed so far containing a Cl atom (14):
SMILES	Tgondii IFNg
CCN1c2cc(Cl)ccc2C(=O)NC12CCN(C(=O)Nc1ccccc1OC)CC2	119
NC(=S)c1ccc(C(F)(F)F)cc1Cl	12
Cc1nc(-c2ccc(F)cc2)sc1CCNS(=O)(=O)c1ccccc1Cl	48
Nc1nnc(SCc2c(Cl)cccc2Cl)s1	80
COc1ccc(S(=O)(=O)Nc2ccc3c(c2)C(=O)N([C@H](C)CO)C[C@@H](C)[C@@H](CN(C)S(=O)(=O)c2ccc(Cl)cc2)OCCCC[C@H](C)O3)cc1	-117*
COc1ccc(NC(=O)c2nnn(Cc3nc(-c4ccc(Cl)cc4)oc3C)c2C)cc1OC	-21
CC(=O)Nc1ccc(Cl)c(C(=O)Nc2cnc3n2CCCC3)c1	8
Cc1noc(C)c1CN(C)C(=O)c1coc(COc2ccc(F)cc2Cl)n1	-54
COCCN(CC1CC1)C(=O)c1cc(NC(C)=O)ccc1Cl	-6
FC(F)(F)c1cc(C(F)(F)F)n2ncc(-c3nc(-c4ccc(Cl)cc4)cs3)c2n1	17
CSc1sc(C(=O)NC(=S)Nc2ccccc2Cl)cc1S(=O)(=O)C(C)C	-14
COc1ccc2c(c1)NC1(CCN(S(=O)(=O)c3ccc(F)c(Cl)c3)CC1)c1cccn1-2	11
CCn1c(C(C)Oc2ccc(Cl)cc2)n[nH]c1=S (stereo not drawn)	-4
O=C(Cn1c(=O)ccc2cc(S(=O)(=O)N3CCCC3)ccc21)NCc1ccc(Cl)cc1	-53
